CBX7 inh: CBX7 chromodomain binding inhibitors, primary screen, biochemical, AlphaScreen | AID 1224903, 2016 | normalised signal (fraction of DMSO) (test concentration not listed) | AlphaScreen His6-CBX7 / biotin-H3K27me3 peptide binding; active compounds read low | hit rate 1.1% among 66,000 | Chromobox protein homolog 7 (Homo sapiens), O95931; in the data active means normalised signal below about 0.5;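 further: 100 nL library stock added to about 20 µL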
Target sequence (O95931 whole entry, looked up): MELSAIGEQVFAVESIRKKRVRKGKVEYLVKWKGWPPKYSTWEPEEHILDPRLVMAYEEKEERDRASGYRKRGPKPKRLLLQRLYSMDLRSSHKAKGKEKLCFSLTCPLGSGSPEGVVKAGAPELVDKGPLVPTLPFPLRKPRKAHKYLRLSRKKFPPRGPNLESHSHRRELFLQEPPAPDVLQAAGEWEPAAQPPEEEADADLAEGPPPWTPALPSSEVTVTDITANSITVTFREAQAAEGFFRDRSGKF
CBX7 inh z-score: further read-out of CBX7 inh, marked with its call; z-score; measured here: z-score of CBX7 signal; some inactives read as strong as hits; reference of the scale not given here;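 same signal on another scale; lower means less binding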
* = called active by the depositor; & = joins results of further samples.

SMILES	CBX7 inh	CBX7 inh z-score
CCCCC(=O)Nc1ncc2c(n1)CC(C)(C)CC2=O	1.2	1.4
Cc1ccccc1CN1CCN(CC(=O)NCC2CCCO2)C1=O (stereo not given)	1	0.76
COCc1nc2ccccc2n1CCOc1ccc(C)cc1	0.98	-0.63
Cc1cc(N2CCN(C)CC2)nc2ccc(NC(=O)CCC(=O)NC3CCCCCC3)cc12	1	0.77
COc1cc(OC)cc(-c2cc3nc(C)c(CCC(=O)O)c(C)n3n2)c1	1	-0.088
Cc1ccc2c(c1)C(c1ccc(F)cc1)N(C(=O)c1cccc(C(F)(F)F)c1)CC(=O)N2 (stereo not given)	0.72	-5
O=C(Cn1cc(S(=O)(=O)c2ccc(F)cc2)c(=O)c2ccccc21)Nc1ccc(F)c(Cl)c1	1	0.44
COc1ccc(Nc2nc(-c3c(C)nc4sccn34)cs2)cc1	0.93	-0.24
CCOC(=O)c1c(NC(=O)Cc2ccc(OC)cc2)sc2c1CCCC2	1	0.039
COc1ccccc1NC(=O)N1CCN(c2ccc3nnc(-c4ccc(F)cc4)n3n2)CC1	0.97	-0.46
Cc1ccc(NC(=O)Cn2cnc3sc(C(=O)Nc4ccc(F)cc4)c(C)c3c2=O)cc1Cl	1.1	2.7
CCCCOc1ccc(C(=O)NCCc2cc3ccc(C)c(C)c3[nH]c2=O)cc1	1.1	1.6
CCN(CC)c1ccc2cc(-c3nc4ccc(Cl)cc4[nH]3)c(=O)oc2c1	1.1	1.4
COc1ccc(-c2noc(CCC(=O)Nc3cc(OC)ccc3OC)n2)cc1	1	0.59
COc1ccc(C(=O)Nc2c3c(nn2-c2ccccc2C)CSC3)cc1OC	0.99	-0.29
CC(C)c1ccc(N(CC(=O)O)S(=O)(=O)c2ccc3[nH]c(=O)c(=O)[nH]c3c2)cc1	0.99	-0.21
COCCNC(=O)c1ccc2c(c1)NC(=O)CN2C	1	0.24
COc1ccc(Nc2ncc(C(=O)N3CCN(C)CC3)c3ccccc23)cc1	1.1	1.1
COc1ccc(Cl)cc1Nc1cc(C)nc2nnnn12	0.86	-1.9
CCc1ccc(C(=O)CSc2cc(C)nc3nc(C)nn23)cc1	1	0.63
COc1ccc(NC(=O)c2cnn(-c3ccccc3)c2C2CCNCC2)cc1Cl	1.1	0.95
CCC(=O)N1c2ccc(S(=O)(=O)N3CCOCC3)cc2CC1C (stereo not given)	1	0.82
O=C(Cn1nc(-c2ccc(Cl)cc2)ccc1=O)NC1CCCC1	0.98	-0.86
CCOc1ccc(Nc2oc(-c3ccccc3F)nc2C#N)cc1	1.1	0.57

Fetched by structure from the entries so far (6):
SMILES	CBX7 inh	CBX7 inh z-score
COc1ccc(Cl)cc1Nc1cc(C)nc2nnnn12	0.86	-1.9
O=C(Cn1nc(-c2ccc(Cl)cc2)ccc1=O)NC1CCCC1	0.98	-0.86
COc1ccc(Nc2ncc(C(=O)N3CCN(C)CC3)c3ccccc23)cc1	1.1	1.1
CCOc1ccc(Nc2oc(-c3ccccc3F)nc2C#N)cc1	1.1	0.57
CCC(=O)N1c2ccc(S(=O)(=O)N3CCOCC3)cc2CC1C (stereo not given)	1	0.82
COc1ccc(-c2noc(CCC(=O)Nc3cc(OC)ccc3OC)n2)cc1	1	0.59

Next part.
SMILES	CBX7 inh	CBX7 inh z-score
CCOC(=O)c1c(-c2ccc(F)cc2)csc1NC(=O)C1CCCCC1C(=O)O (stereo not given)	0.92	-1.2
CC(=O)N1CCc2cc(S(=O)(=O)NC(Cc3ccccc3)C(=O)Nc3ccc(Cl)cc3)ccc21 (stereo not given)	1.1	2.2
CCN(CC)CCCN(C)C(=O)c1cc2c(s1)-c1ccccc1OC2	1.3	4.3
CCCCn1c(=N)n(CC(O)c2ccc(Cl)cc2)c2ccccc21 (stereo not given)	1	-0.04
Cc1ccc2c(c1)N(C(C)C(=O)NCc1ccccc1Cl)C(=O)CO2 (stereo not given)	0.98	-0.58
OC(C#CCN1CCCCCC1)(c1ccccc1)c1cccc(F)c1 (stereo not given)	1.1	0.79
COc1cccc(-n2nc(C(=O)Nc3nc4ccc(OC)cc4s3)c3ccccc3c2=O)c1	0.99	-0.3
CCOc1ccc(C(C)(O)C(CN2CCOCC2)c2ccccc2)cc1 (stereo not given)	0.76	-5.2
COC(=O)c1c(NC(=O)COc2ccccc2Br)sc2c1CCCC2	1.1	3.5
Cc1oc(-c2ccccc2)nc1Cn1c(SCc2ccccc2F)nc2ccncc21	1	0.18
COc1ccccc1Nc1nc(-c2sc(NC(=O)c3ccccc3)nc2C)cs1	1.2	0.23
Cc1nc2ncnn2c(C)c1CCC(=O)NCCCc1ccccc1	0.98	-0.45
Cc1ccsc1-c1nc(CSCC(=O)NCCc2ccc(Cl)cc2)c(C)o1	0.85	-2.7
CCC(C)(Nc1ccc(C)cc1)c1nnnn1-c1c(C)cccc1C (stereo not given)	1	0.023
Cc1nc(SCC(=O)Nc2ccnc3ccccc23)n[nH]1	0.94	-0.72
COc1ccc(N2C(=O)CC(N3CCC(O)(c4ccc(Br)cc4)CC3)C2=O)cc1 (stereo not given)	1.3&1	2.1&0.036
COC(=O)Cc1nc(Nc2ccc(Oc3ccccc3)cc2)c2c(C)c(C)sc2n1	1	0.13
Cc1ccc(-c2nnc(Nc3ccc(S(N)(=O)=O)cc3)c3ccccc23)cc1S(=O)(=O)NCCO	1.1	2.6
Cc1cc(C(=O)Nc2cccc(C)c2C)n(-c2ccccc2)n1	0.92	-0.63
Cc1ccc(CNC(=O)c2cc(C)nn2-c2ccccc2)cc1	1.1	1
Cc1nnc(Sc2cc(C(=O)NCC3CCCO3)c3ccccc3n2)s1 (stereo not given)	1	0.77
COc1ccc(-c2csc(Nc3ccc(S(N)(=O)=O)cc3)n2)cc1	0.8	-3.2
Cc1ccc(-c2nc3ccccc3o2)cc1NCc1cc(Cc2ccccc2)ccc1O	0.92	-1.9
COc1ccc(Cl)cc1NC(=O)c1cnn(-c2ccc(F)cc2)c1C1CCNCC1	0.94	-1.2

Record cards, from the list above. Order of screens: CBX7 inh	CBX7 inh z-score
`Cc1oc(-c2ccccc2)nc1Cn1c(SCc2ccccc2F)nc2ccncc21` is listed as 1	0.18
`COc1ccccc1NC(=O)N1CCN(c2ccc3nnc(-c4ccc(F)cc4)n3n2)CC1` is listed as 0.97	-0.46

Continued.
SMILES	CBX7 inh	CBX7 inh z-score
O=C(c1cc(-c2ccc(Cl)c(Cl)c2)on1)N1CCN(c2ccccc2)CC1	1	0.085
O=C(CSc1nc(-c2ccc(F)cc2)[nH]c1-c1ccccc1)Nc1ccc2c(c1)OCCO2	0.75	-3
O=C(CNc1ccccc1-c1nc2ccccc2[nH]c1=O)NCC1COc2ccccc2O1 (stereo not given)	1.1	3.1
CC1CCCC(NC(=O)CCn2nc(-c3ccccc3)ccc2=O)C1C (stereo not given)	1.2	0.31
CCOC(=O)C1CCN(C(C(=O)NC2CCCC2)c2ccc(Cl)cc2)CC1 (stereo not given)	0.99	-0.43
CCc1ccccc1N1C(=O)Cn2cccc2C1C(=O)NC1CCCCC1C (stereo not given)	1	0.74
COc1ccccc1C(=O)NCCc1cc2cc(C)c(C)cc2[nH]c1=O	1.2	1.1
C=C(C)c1cccc(C(C)(C)NC(=O)Nc2ccccc2F)c1	1.1	0.96
CC(C)(C)C(C(Oc1ccc(Cl)cc1)n1cncn1)n1nnnc1C(c1ccc(Cl)cc1Cl)N1CCCCC1 (stereo not given)	0.72	-7.8
COc1cccc(CNC(=O)CN2C(=O)COc3ccccc32)c1	1	0.89
O=C(CN1C(=O)CSc2ncccc21)NCCCN1CCc2ccccc2C1	1	0.087
CCC(Sc1nccn1C)C(=O)Nc1ccc(Cl)cn1 (stereo not given)	1.1	2.1
Cc1ccc(-c2nc(C(=O)NCCN3CCOCC3)c(C)o2)cc1	1.1	2.8
C=CCn1c(CCNC(=O)c2cccc(C)c2)nc2ccccc21	1.1	0.76
Cc1cccc(NCc2nc3ccccc3n2CCOc2ccccc2C)c1	0.86	-2.2
O=C(NCCCN1CCCC1)c1cnn(-c2ccccc2)c1-n1cccc1	1.1	2.5
COc1cccc(-c2cc(C(=O)Nc3cnn(Cc4ccc(F)cc4)c3)no2)c1	0.96	-0.79
Cc1ccc(OCC(=O)Nc2cc(-c3nn(C)c(=O)c4ccccc34)ccc2N2CCCCC2)cc1	1.3	1.1
CCOC(=O)N1CCN(c2c(N3CCN(c4cccc(Cl)c4)CC3)c(=O)c2=O)CC1	0.99	-0.28
CCOC(=O)c1ccccc1NC(=O)c1c(Cl)ccc(Cl)c1OC	1.3	0.54
CCCC(=O)N1c2ccccc2NC2=C(C(=O)CCC2)C1c1ccc(OC)cc1 (stereo not given)	1.1	0.98
CSCC[C@@H](C(=O)Nc1ccc2c(c1)OCCO2)N1Cc2ccccc2C1=O	0.78	-0.61
O=C(Cn1cnc2sc3c(c2c1=O)CCCC3)NCC(=O)Nc1ccc(F)cc1F	1	0.74
O=C(Cn1nc(Cc2ccncc2)c2ccccc2c1=O)NCc1cccnc1	1	0.11

Reformatted: two of the compounds above
Under each structure – CBX7 inh	CBX7 inh z-score
CSCC[C@@H](C(=O)Nc1ccc2c(c1)OCCO2)N1Cc2ccccc2C1=O
→ 0.78	-0.61
Cc1ccc(OCC(=O)Nc2cc(-c3nn(C)c(=O)c4ccccc34)ccc2N2CCCCC2)cc1
→ 1.3	1.1

Remaining list, next part:
SMILES	CBX7 inh	CBX7 inh z-score
Cc1cc(N2CCOCC2)c(F)cc1C(C)(O)C#Cc1ccccc1 (stereo not given)	1	0.064
Cc1ccc(CCNC(=O)c2cc(=O)[nH]c3ccc(Br)cc23)cc1	0.94	-1.1
CCCCN(CC)CCCNC(=O)c1ccc2c(c1)N(CC)C(=O)c1ccccc1S2(=O)=O	1	0.99
CCC(C)NC(=O)C1(C)CCC(=O)N1Cc1cccc(OC)c1 (stereo not given)	1	0.73
COc1ccc(S(=O)(=O)NCCc2c(C)[nH]c3ccccc23)cc1	0.85	-3.5
CC(C)(C)c1ccc(OCC(=O)Nc2ccc3oc(-c4ccncc4)nc3c2)cc1	1	0.081
O=C(NC1CCCC1)C1c2cccn2CC(=O)N1Cc1cccs1 (stereo not given)	1.2	0.97
CCC(C)NC(=O)C1CCCCN1S(=O)(=O)c1ccc(F)cc1 (stereo not given)	1	1.1
Cc1nc(C)c(-c2csc(Nc3ncccn3)n2)s1	1	0.36
CCC(C)C1Nc2ccc(C(=O)NCCCN3CCCCC3C)cc2NC1=O (stereo not given)	1.1	0.1
O=C(Cn1nc(-c2ccc(Cl)cc2)ccc1=O)N1CCC(Cc2ccccc2)CC1	0.89	-5.9
Cc1ccc(-c2nc3ccccc3[nH]2)cc1N	0.99	-0.22
CC(C)c1ccccc1-n1nc(-c2ccc(Cl)cc2)cc1-c1ccc(Cl)cc1	0.97	-0.43
Cc1ccc(-c2cc(C(F)(F)F)n3nc(C(=O)N4CCC(C)CC4)cc3n2)cc1	1.1	1.1
Cc1ccc(-n2nc(C)c3c(C)c(CCC(=O)NC(C)c4ccccc4)c(C)nc32)cc1 (stereo not given)	1	0.41
Cc1[nH]c2ccccc2c1CCNC(=O)COc1ccc(F)cc1	1.1	0.85
Cc1cccc(NC(=O)c2cnc3ccccn3c2=O)c1C	1.1	2
O=C(c1cc(-c2ccc(Br)cc2)nc2ccccc12)N1CCN(c2ncccn2)CC1	0.98	-0.64
Cc1onc(-c2ccccc2)c1C(=O)NC(C)CCc1ccccc1 (stereo not given)	1	0.015
Cc1cc(C)cc(NC(=O)CCNS(=O)(=O)c2ccc3c(c2)CCC(=O)N3)c1	1.1	2.1
Cc1cc(C)c2oc(-c3ccc(C)c(NC(=O)c4oc5ccccc5c4C)c3)nc2c1	1.1	3
Cc1cc(C)cc(OCCCCc2c(C)n[nH]c2C)c1	0.79	-0.28
Cc1ccc(C2=NN(CCC(=O)NCCc3cccc(C)c3)C(=O)CC2)cc1	0.87	-1.7
Cc1nnc(Nc2ccc(S(=O)(=O)Nc3nccs3)cc2)c2ccccc12	0.49*	-3.3*
CCOc1ccc(NC(=O)CCc2c(C)nc3cc(-c4ccc(OC)cc4OC)nn3c2C)cc1	0.89	-1.4
OCCNc1ccc2nnc(-c3ccc(Br)cc3)n2n1	1.1	0.8
Cn1nc(-c2ccc(OCC(=O)Nc3cccc(C(F)(F)F)c3)cc2)c2ccccc2c1=O	0.98	-0.73
O=C(CN1C(=O)CSc2cc(S(=O)(=O)N3CCCCCC3)ccc21)NCCc1ccccc1	1.1	2.9
CCOc1cccc(C(=O)N(Cc2ccc(OC)c(OC)c2)C2CCS(=O)(=O)C2)c1 (stereo not given)	0.93	-0.073
COC(=O)Cc1nc(Nc2cnc3ccccc3c2)c2c(C)c(C)sc2n1	0.95	-0.053
Cc1ccccc1NC(=O)COc1ccc2oc3c(c2c1)CCCC3	1.1	0.95
O=C(Nc1ccc(C(F)(F)F)cc1)c1cnc2ccccn2c1=O	0.84	-2.2
COc1ccc(-c2nc(CS(=O)(=O)CC(=O)NC3CCC(C)CC3)c(C)o2)cc1 (stereo not given)	1	0.52
Cc1ccc2c(c1)-c1c(cnn1CC(=O)NCCC1=CCCCC1)CO2	1	0.077
O=C(CN1C(=O)CSc2ccc(S(=O)(=O)N3CCOCC3)cc21)NCc1ccc(F)cc1	0.92	-0.96
Cc1ccc(O)c(-c2cc(-c3ccc(F)cc3)n[nH]2)c1	0.92	-1.9
CCOC(=O)N1CCC(Nc2c(N3CCN(c4cccc(C(F)(F)F)c4)CC3)c(=O)c2=O)CC1	1	0.13
COc1ccc2cnn(-c3nc4ccccc4s3)c(=O)c2c1OC	0.94	-1.8
COc1cccc(NC(=O)CSc2nccn2-c2cccc(C)c2)c1	0.76	-0.24
CC1CCCC(NC(=O)CC(C)(C)CC2=NS(=O)(=O)c3ccccc3N2)C1C (stereo not given)	1.2	1.3
COC(=O)c1ccccc1NC(=O)C1CCCN1S(=O)(=O)c1cccc2cccnc12 (stereo not given)	0.95	-1.5
CCOC(=O)c1cc(-c2ccc(OC)cc2)n(CCC(=O)N2CCN(c3ccccc3OC)CC2)c1C	0.75	-4.6
Cc1ccc(Nc2c(-c3ccc(Cl)cc3)nc3nc[nH]n23)cc1	0.76	-2.8
CCOC(=O)N1CCc2c(sc(NCc3cccs3)c2C(=O)Nc2ccccc2OCC)C1	0.95	-2.4

Screening data from PubChem.

Some of the compounds tested; the hit share may differ from the screen's.
